ugtP null kill = growth inhibition of ugtP-null S. aureus, primary screen, RN4220 ugtP deletion, OD600; AID 1259309, 2017; growth inhibition, % (concentration not given with the values); actives 0.54% (n = 330,000); 16 h; some inactives read as strong as hits;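 active = z-score under -3 and OD600 up to 0.15 on both plates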;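 also: plate controls were untreated wells for no effect and antibiotic for full effect; wells of about 80 µL received 100 nL stock; the first replicate is given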
Autofluor counter = counter-screen for toxin protease inhibitors: compound fluorescence; compound autofluorescence counterscreen, microsphere flow cytometry; stronger effect = higher value; fluorescence intensity (concentration not given with the values); actives 3.1% (n = 360,000); AID 624483;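 active = at least 3 SD above the mean of all compounds, about 16000 in these data; inconclusive = too few beads counted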;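 also: 100 nL of 1 mM stock went into each well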
Mtb hypoxia rep = PubChem AID 1159583; M. tuberculosis hypoxia-regulated fluorescent reporter, fluorescence; fluorescence inhibition, % (test concentration not listed); actives 0.1% (n = 300,000);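 active = 35 to 45% if threefold the growth effect, above 45% if 1.5-fold the growth effect; inactive = the rest, general growth blockers included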;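 also: wells of about 50 µL received 100 nL stock; 0% = vehicle wells and 100% = reference inhibitor wells; whole bacteria with a GFP reporter of the hypoxia response; strong numbers were not always called active; many hits fall short of the cut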
PrP UTR inh = inhibition of PrP 5' UTR reporter expression. inhibition, % (no concentration beside the values). actives 0.35% (n = 340,000). cell-based PrP 5' UTR mRNA reporter, plate reader. AID 488862, 2010;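 active = every replicate at 50% or more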;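 also: 0 = median of the neutral control wells; tested in H4 reporter cells; numbers are from one replicate; inactives centre near -14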
Sa RN4220 lethal = growth inhibition of S. aureus RN4220, primary screen, OD600; 16 h; inhibition, % (concentration not given with the values); actives 0.33% (n = 330,000);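 active = z-score of -3 or lower and OD600 up to 0.18 on both plates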;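 also: plate controls were untreated cells for no effect and reference antibiotic for full effect; stock transfer was 100 nL into about 80 µL; one replicate is shown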
BJeLR lethal = MLPCN primary cell-based screen for lethality selective to Ras in HRASV12 cells; BJeLR (HRASV12) viability, CellTiter-Glo ATP luminescence, 48 h; reference of the scale not given here; AID 1554, 2009; inhibition, % (no concentration beside the values); actives 0.17% (n = 300,000);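 active = replicate mean above 50%; inconclusive = above 50% but judged a plate artefact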;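 also: 50 nL library stock added to about 25 µL; numbers are from one replicate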
Mtb hypoxia rep growth = also measured in Mtb hypoxia rep; calls as there; growth inhibition, %; measured here: M. tuberculosis growth (absorbance);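 0% = vehicle and 100% = reference antibiotic; read after six days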
* hit, by the source's call; ? = inconclusive; nt = no result given; & = joins results of further samples.

SMILES	ugtP null kill	Autofluor counter	Mtb hypoxia rep	Mtb hypoxia rep growth	PrP UTR inh	Sa RN4220 lethal	BJeLR lethal
COc1cccc(C(Nc2ccccn2)c2c(NC(=O)c3ccco3)sc(C)c2C)c1 (stereo unspecified)	-7	2474	16	7	-14	6.5	-4
CCOC(=O)c1ccccc1NC(=O)CSc1nnnn1C	11	3486	nt	nt	2	-2.7	-13
O=C(NC1CC1)C1=C[C@@H](C2CC2)C[C@@H](OCc2ccc(CO)cc2)O1	nt	3685	nt	nt	-7	nt	16
CC(=O)c1n[nH]nc1Nc1nc(C)cc(C)n1	-1	10796	-1	-8	nt	2.2	-10
CCc1cc[n+](/C(C(=S)Nc2cccc(C)c2)=C(/[O-])c2ccc(C)c([N+](=O)[O-])c2)cc1	nt	3019	nt	nt	-23	nt	8
Cc1cccn2c(=O)c3cc(C(=O)NCc4cccnc4)c(=N)n(CC4CCCO4)c3nc12 (stereo unspecified)	5	3954	2	6	-16	1.1	5
CCCN(CCC)CC(C)(C)NS(=O)(=O)c1ccc(Cl)cc1	2	4024	-11	8	-27	7.9	-13
CCN(CC)S(=O)(=O)c1ccc(N2CCOCC2)c(NC(=O)c2cccc(C#N)c2)c1	nt	3132	nt	nt	-9	nt	5
CC(C)CC(=O)Nc1ccc(-c2nc3ccccc3c(=O)o2)cc1	5	2780	12	10	-5	3.4	3
CC/C(CC(C)(C)c1ccccc1)=N\O	nt	4349	nt	nt	-2	nt	-6
CCN(C(=O)COc1ccc(F)cc1Br)c1c(N)n(Cc2ccccc2)c(=O)[nH]c1=O	7	7871	4	6	-6	1.8	nt
CCOc1ccc(N(CC(=O)N2CCN(Cc3ccccc3)CC2)S(C)(=O)=O)cc1	1	4367	4	3	-33	-0.7	-1
Cc1cc2c3ccccc3ncn2n1	-1	3291	-11	1	5	1.4	-3
Cc1cccc(N2C(=O)NC(=O)/C(=C\c3cnc(-c4ccccc4)nc3)C2=O)c1	5	2592	4	4	-13	1.7	0
CCOc1ccc(N(CC)C(=O)Cc2c(C(=O)O)n(C)c3ccccc23)cc1	-2	4124	10	10	-9	7.1	0
COc1ccc([N+](=O)[O-])cc1NC(=O)/C=C/C(=O)O	8	11275	3	-1	-9	2.7	0
O=C(CNC(=O)c1nc[nH]c1C(=O)NCC(=O)OCc1ccccc1)OCc1ccccc1	1	4115	6	13	-1	3.5	7
O=C(CSc1nnnn1Cc1ccccc1)NCCc1ccccc1	0	3898	nt	nt	-9	0.6	0
Cc1cc(C)n2nc(SCC(=O)Nc3ccc(O)cc3)nc2n1	3	4488	-2	-3	-24	0.4	5
COc1cc(C(=O)NCC(=O)NN=Cc2ccc(-c3ccc([N+](=O)[O-])cc3)o2)cc(OC)c1OC	-12	nt	12	3	nt	2.5	nt
CC(C)(C)c1ccc(C(=O)Cn2cnnc2C#N)cc1	-3	3621	9	14	7	-1.5	1
Cc1ccccc1Cn1ccc(NC(=O)c2onc(C)c2Cl)n1	2	6099	11	18	-32	3.2	9
CC(C)(C)S(=O)(=O)c1ccccc1-c1noc(-c2ccccc2)c1C(N)=O	8	3221	11	-7	nt	3.1	-8
O=C(/C=C/c1ccccc1[N+](=O)[O-])OCC(=O)c1ccccc1	6	4936	-10	0	-28	11	-3
CC(C)Sc1sc(C(=O)O)c(-c2ccc(Cl)cc2)c1C#N	15	4405	15	14	-11	14	-13
Later entries.
SMILES	ugtP null kill	Autofluor counter	Mtb hypoxia rep	Mtb hypoxia rep growth	PrP UTR inh	Sa RN4220 lethal	BJeLR lethal
O=S(=O)(Nc1ccc(N2CCOCC2)cc1)c1ccc(F)cc1	8	4017	11	8	-26	3.1	-5
CCCCc1n[nH]c2c1C(=NOCC)CC(C)(C)C2	9	nt	11	10	nt	5.5	nt
O=C(COC(=O)CCc1nc2ccccc2s1)NC(=O)NCc1ccco1	19	3181	1	-4	-1	7.2	8
COc1cccc(NC(=O)CN(C)C(=O)c2ccc3ccccc3c2)c1	-4	23982*	0	1	-29	-2.3	7
O=C(Oc1cncc(Cl)c1)c1ccco1	-4	3304	-2	5	-28	2.2	7
CCC(C)Sc1nnc(Cc2cc(=O)[nH]c(=O)[nH]2)n1-c1ccc(OC)cc1 (stereo unspecified)	2	4685	nt	nt	-15	0.5	-1
CCc1ccc(OCC(=O)NC(NC(=S)Nc2ccc(Cl)cc2)C(Cl)(Cl)Cl)cc1 (stereo unspecified)	20	9400	3	6	-1	18	5
CCOc1ccc(C(c2c(C)n(C)n(-c3ccccc3)c2=O)c2c(C)n(C)n(-c3ccccc3)c2=O)c(O)c1	4	3111	2	-4	-3	1.0	5
O=C(NC1CC1)C1=CC(c2csc3ccccc23)CC(OCc2ccc(CO)cc2)O1 (stereo unspecified)	1	nt	13	12	nt	0.6	nt
O=C(O)c1ccc(CNCc2cccc(OCc3ccc(F)cc3)c2)cc1	9	3041	8	2	-11	4.5	3
Cc1ccc(C(=O)N2CCc3ccccc32)cc1NC(=O)c1ccco1	0	4558	4	8	-8	6.1	21
COc1ccc(C(=O)N(Cc2ccco2)Cc2cc3cc(C)ccc3[nH]c2=O)cc1OC	1	nt	17	6	-12	-2.6	-4
CCn1cc(C(=O)N2CCN(c3ccccn3)CC2)c2cc(OC)c(OC)cc2c1=O	-2	4452	1	13	-9	0.1	nt
O=C(O)CS(=O)(=O)CC(=O)O	nt	3063	nt	nt	-13	nt	-10
Cc1ccc(/C=N/NC(=O)Cn2cnc3ccccc32)o1	nt	6628	nt	nt	-6	nt	-2
COC(=O)c1scc(C)c1NC(=O)c1cccc(C#N)c1	6	3646	5	7	-20	2.9	4
COc1ccc(C(C)=NNC(=O)Cn2nc([N+](=O)[O-])cc2C)cc1	11	nt	6	-1	nt	2.2	nt
Cc1occc1C(=O)Nc1cccc2ccccc12	-6	2281	nt	nt	-137	-6.1	-2
CC(=O)c1ccccc1NC(=O)COC(=O)/C(=C/c1ccccc1)n1nnnc1C	9	4507	7	-7	-4	3.1	-20
Cc1cc2ncn(N)c2cc1C	4	11584	13	13	-9	4.8	4
COc1ccc(C(C)=O)cc1CSc1nnc(-c2ccncc2)n1C	-12	?	0	5	-22	-0.4	-2
CCN1C(=O)[C@H]2[C@H]3CN=C(SCc4ccc(Cl)cc4)N3[C@@](Cc3ccccc3)(C(=O)OC)[C@H]2C1=O	-14	3658	-2	10	17	7.4	nt
O=C(CSC(=S)N1CCCCC1)Nc1ncc2c(n1)CCCC2=O	2	nt	2	-2	-20	2.2	4
CCOC(=O)CSc1nc2ccc(NC(C)=O)cc2s1	-3	4317	7	6	14	4.4	5
CS(=O)(=O)N1CCN(c2nc(-c3ccccc3)cs2)CC1	6	2784	7	5	-29	-1.4	-9
(list continues)
SMILES	ugtP null kill	Autofluor counter	Mtb hypoxia rep	Mtb hypoxia rep growth	PrP UTR inh	Sa RN4220 lethal	BJeLR lethal
CCOP(=S)(NN(Cc1ccccc1)C(=O)c1ccccc1)OCC	-4	2603	7	4	-16	25	8
O=C(COc1cccc2cccnc12)NN=Cc1ccccc1O	2	nt	-8	2	nt	9.1	nt
CCC(=O)N1N=C(c2ccc(Cl)cc2)CC1c1ccco1 (stereo unspecified)	-18	3557	2	5	-29	0.6	-6
CS(=O)(=O)N(CC(=O)N1CCC(C(N)=O)CC1)C1CCCCC1	2	4391	3	-1	-6	5.1	-5
CCCc1[nH][nH]c(=O)c1C(c1ccc(Br)cc1)C(C#N)C#N (stereo unspecified)	-19	8376	7	14	3	-3.8	4
Cc1cccc(CC(Cc2nc3ccccc3[nH]2)c2nc3ccccc3[nH]2)c1 (stereo unspecified)	-23	3200	-3	2	-6	-30	1
Cc1ccccc1-n1nc2c(c1NC(=O)c1cc3ccccc3o1)CS(=O)(=O)C2	3	5764	9	6	1	0.8	-12
O=C(CCC(=O)Nc1ccccc1)NNC(=O)COc1ccccc1	6	2039	8	1	-4	3.1	20
Cn1c(=O)c2ncn(CC(=O)Nc3cc(C(F)(F)F)ccc3N3CCOCC3)c2n(C)c1=O	2	7792	1	-1	-12	0.0	6
O=C(O)C1=CC(C2CC2)CC(OCc2ccc(CO)cc2)O1 (stereo unspecified)	6&-8	nt	7&10	-1&0	nt	1.5&4.1	nt
CCC(=O)N1CCN(C(=O)c2ccccc2)CC1	-3	5842	-4	-1	-12	5.3	nt
CCOC(=O)CN1C(=O)C(C)(C)Oc2ccc(C(=O)Nc3ccccc3OC)cc21	6	20848*	7	11	-23	2.9	9
COc1cccc(C2=CC(c3ccc(N(C)C)cc3)n3nnnc3N2)c1 (stereo unspecified)	-18	16376*	-9	-1	-18	-1.7	-5
CN1CCc2c(sc(NC(=O)c3ccc(S(=O)(=O)N4CCc5ccccc54)cc3)c2C(N)=O)C1	4	nt	19	11	nt	1.9	-1
COc1ccc(-n2c(=O)c3c4c(sc3n3c(=S)[nH]nc23)CCC4)cc1	5	3720	-3	2	-12	6.0	-9
CCn1c(=O)n(CC(=O)N2CCC3(CC2)OCCO3)c(=O)c2ccccc21	1	2706	nt	nt	-20	0.6	0
COc1ccc(C(=O)OCC2CC(c3ccccc3)N(C)O2)cc1 (stereo unspecified)	3	10312	-5	3	-5	-0.5	10
COc1ccccc1Nc1nn2c(=O)c3ccc(C(=O)N4CCCCC4)cc3nc2s1	-4	6117	-14	6	-13	-2.6	6
CC(C)(CNC(=O)C1CCCN1C(=O)c1cccs1)N1CCOCC1 (stereo unspecified)	3	4639	2	5	-12	-0.3	4
O=C(OCC(=O)c1ccc(Br)s1)c1ccc(O)cc1	-1	nt	4	1	-71	9.8	nt
O=C(NCc1ccccc1)C1CCCN(C(=O)c2ccc(F)cc2)C1 (stereo unspecified)	5	6129	1	-5	-14	1.0	nt
CC(=O)c1cccc(NC(=O)Nc2ccc3c(c2)OCO3)c1	-6	6656	0	5	-48	1.5	nt
COc1ccc(N2CCN(C(c3cccs3)C(C)NC(=O)C(=O)N3CCCC3)CC2)cc1 (stereo unspecified)	13	5110	3	-1	-24	0.6	3
CCC(=O)Nc1ccc(C(=O)N/N=C/c2ccc([N+](=O)[O-])cc2)cc1	nt	9081	nt	nt	-22	nt	15
Cc1cccc(N2CCN(CCCNC(=O)C3CCCN(c4ncnc5c4nc4n5CCCCC4)C3)CC2C)c1 (stereo unspecified)	4	4937	3	-5	-11	2.8	20

The closing five entries of the section before come first, to join the parts.
SMILES	ugtP null kill	Autofluor counter	Mtb hypoxia rep	Mtb hypoxia rep growth	PrP UTR inh	Sa RN4220 lethal	BJeLR lethal
O=C(NCc1ccccc1)C1CCCN(C(=O)c2ccc(F)cc2)C1 (stereo unspecified)	5	6129	1	-5	-14	1.0	nt
CC(=O)c1cccc(NC(=O)Nc2ccc3c(c2)OCO3)c1	-6	6656	0	5	-48	1.5	nt
COc1ccc(N2CCN(C(c3cccs3)C(C)NC(=O)C(=O)N3CCCC3)CC2)cc1 (stereo unspecified)	13	5110	3	-1	-24	0.6	3
CCC(=O)Nc1ccc(C(=O)N/N=C/c2ccc([N+](=O)[O-])cc2)cc1	nt	9081	nt	nt	-22	nt	15
Cc1cccc(N2CCN(CCCNC(=O)C3CCCN(c4ncnc5c4nc4n5CCCCC4)C3)CC2C)c1 (stereo unspecified)	4	4937	3	-5	-11	2.8	20
CCOC(=O)CC(NC(=O)c1cc2cc(Cl)cc(Cl)c2oc1=O)c1cccc([N+](=O)[O-])c1 (stereo unspecified)	-4	2138	12	3	2	18	7
Nc1nc(=S)c2ncn(C3CCCCC3)c2[nH]1	0	3696	9	7	-7	1.8	nt
C=CCN=C1NN=C(c2cc(C)n(CC=C)c2C)CS1	1	2404	14	5	83*	6.9	6
CN(C)C(=O)COc1ccc2ccc(=O)oc2c1	3	5989	3	-1	-14	0.2	5
CN(Cc1ccon1)C(=O)C1CCC(=O)N(CCc2ccc(Cl)cc2)C1 (stereo unspecified)	5	5334	8	3	-7	3.2	-5
Cc1ccc(S(=O)(=O)c2nc(S(=O)(=O)c3ccccc3)sc2N2CCN(C)CC2)cc1	13	5213	9	13	-1	4.8	13
CC(=O)Nc1ccccc1OCC(O)CS(=O)(=O)c1ccc(C(F)(F)F)cn1 (stereo unspecified)	7	3032	9	1	-16	4.2	-25
Cn1c(C(=O)Nc2ccc3c(c2)OCO3)cc2sccc21	-15	11702	0	0	-202	0.3	-4
O=C(CN1C(=O)CCC1=O)NCC12CC3CC(CC(C3)C1)C2	11	3361	nt	nt	-10	1.0	-2
O=C(Cn1nnc(N2CCCC2)n1)NN=Cc1ccc(Cl)cc1	2	nt	-6	3	nt	1.7	nt

Screening data (PubChem)
